Yeast UUG start: yeast start codon fidelity modulation; AID 602363; activity score, % at 18.7 µM; actives 0.13% (n = 350,000); S. cerevisiae UUG-firefly luciferase reporter, luminescence/redox ratio;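 active = replicate mean at a twofold rise or more, about +100% in these data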;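 note: firefly luciferase made from a UUG start codon reports start codon fidelity; reporter light over untreated wells divided by growth signal over untreated wells; some hits fall short of that in this replicate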
eIF4H inh: inhibitors of RNA binding by human eIF4H. actives 0.94% (n = 290,000). Q15056. eIF4H fluorescence polarization binding assay. AID 2012. inhibition, % at 35 µM;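 active = 50% or more with normal probe brightness, or confirmed in later tests; inconclusive = above 50% with abnormal brightness, or retests that disagree; inactive = below 50% or failed in later tests; about a fifth of its hits are not listed in these tables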;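 note: calls also rest on retests at 20 µM and on dose response follow-up; 0% = protein and probe with vehicle and 100% = probe without protein; strong numbers were not always called active; many hits fall short of the cut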
Rce1 inh: inhibitors of yeast Ras-converting enzyme; Q03530; yeast membranes, quenched prenylated peptide cleavage fluorescence; calls only; actives 0.27% (n = 290,000); AID 2563;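 active = fall in fluorescence gain of 50% or more versus controls, with final raw signal at or below 3038400; inconclusive = same 50% fall but final raw signal above 3038400; inactive = fall in fluorescence gain under 50%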;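 note: plate controls were neutral control wells for no effect and wells lacking membranes for full effect; tested at 10 µM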
Target sequence (Q03530 whole entry, looked up): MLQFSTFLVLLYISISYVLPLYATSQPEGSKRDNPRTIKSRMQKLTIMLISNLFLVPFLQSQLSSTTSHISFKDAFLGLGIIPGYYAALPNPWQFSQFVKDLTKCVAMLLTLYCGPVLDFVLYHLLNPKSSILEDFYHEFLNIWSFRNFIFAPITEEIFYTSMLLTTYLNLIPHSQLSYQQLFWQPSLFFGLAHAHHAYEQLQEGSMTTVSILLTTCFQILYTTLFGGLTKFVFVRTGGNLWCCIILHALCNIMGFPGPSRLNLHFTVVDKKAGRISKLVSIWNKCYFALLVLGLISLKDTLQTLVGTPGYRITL
PABP FP inh: PABP-poly(A) binding inhibition. PABP-poly(A) RNA binding, fluorescence polarization. inhibition, % at 35 µM. actives 1% (n = 290,000). AID 2014;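 active = 50% or more with normal probe brightness, or confirmed in later tests; inconclusive = above 50% with abnormal brightness, or retests that disagree; inactive = below 50% or failed in later tests; about a fifth of its hits are not listed in these tables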;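 note: calls also rest on retests at 20 µM and on dose response follow-up; controls were probe without protein and protein plus probe with vehicle; some compounds called inactive have numbers as strong as hits; many hits fall short of the cut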
Env fusion inh: blocks HIV Env-driven cell-cell fusion. HeLa-JRFL Env/CEM21 cell fusion, luciferase. inhibition, % at 12.3 µM. actives 1.1% (n = 360,000). AID 651610;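 active = mean replicate inhibition score of at least 50 and every replicate individually at or above 50; inconclusive = only one of the two criteria met; inactive = mean below 50 and not all replicates reaching 50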;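 note: 0% = plate neutral controls and 100% = maraviroc near 300 nM; one replicate is shown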
CSC inhib: cancer stem cell inhibition; cancer stem cell-like cells viability, luminescence; inhibition, % at 7.5 µM; actives 1.1% (n = 300,000);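 active = mean at 75% or more and at least half the replicates too; inconclusive = mean and replicates disagree; tested in HMLE shEcad cells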;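 note: 0% = median of negative and 100% = median of positive control wells; the first replicate is given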
MT1-MMP act inh: MT1-MMP (human) activation inhibition | actives 0.061% (n = 360,000) | P50281 | HT1080 RFP-PRO-GFP cells, GFP/RFP ratio fluorescence, overnight; percent of plate control window, DMSO zero | GFP/RFP ratio change, % at 20 µM;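 active = GFP/RFP ratio change of at least 30% with cell ATP level not reduced by more than half and red fluorescence within 50% of control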; note: strong numbers were not always called active
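Assay system: HT1080 RFP-PRO-GFP cells. Benchmarks: DMSO vehicle wells and RFP-L50D-GFP reporter cell wells. Times: overnight cell settling, then overnight compound exposure, 37 °C, 5% CO2. Compound: 20 µM single dose, 1% DMSO. Read-out basis: GFP/RFP fluorescence ratio.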
eIF4H inh retest: further read-out of eIF4H inh, marked with its call; inhibition, %; compound at 20 µM; confirmation average;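 mean of two retest wells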
PABP FP inh retest: recorded beside PABP FP inh, whose call it bears; inhibition, %; compound at 20 µM; confirmation repeats;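 mean of two retest wells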
MT1-MMP act inh RFP: further read-out of MT1-MMP act inh, marked with its call; RFP signal change, %; measured here: RFP expression control read;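 0 = vehicle wells; hits needed this value within 50% of zero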
An asterisk follows results filed as active; i = inactive; ? = inconclusive; . = not tested or not shown; & = joins results of further samples. This is a subset; count on the stated rates, not on these rows.

SMILES	Yeast UUG start	eIF4H inh	Rce1 inh	PABP FP inh	Env fusion inh	CSC inhib	MT1-MMP act inh	MT1-MMP act inh RFP	others
CCC(=O)NCCc1nc2ccccc2[nH]1	10	5	i	0	.	-8	0	4
CCn1c(CC(=O)Nc2ccc(C)cc2)nnc1SCC(=O)NCc1ccccc1	-22	6	i	3	-14	-9	0	0
O=S(=O)(NCc1ccc(F)cc1)c1ccc(-c2cnc(C3CC3)o2)cc1	-12	-1	i	3	9	50	-2	-3
COc1ccc(S(=O)(=O)NCCC(=O)NCc2ccccc2)cc1	-12	5	i	3	.	-5	1	1
Cc1[nH]nc(N=CC2=C(O)CC(C)(C)CC2=O)c1-c1ccc(Cl)cc1	5&-7	5	i	-4	-10	69	1&5	-4&-5
COc1ccccc1C(CCN(Cc1cccs1)C(C)=O)c1ccco1 (configuration not stated)	-1	6	i	15	-107	8	-12	-2
CC1=Nc2ccc(C)c3nc(C)cc(c23)N1c1ccc(C)cc1	-8	.	i	.	.	-16	-13	-3
COC[C@H]1CCCN1[C@H]1CS(=O)(=O)N[C@@H]1COCc1ccccc1	-11	.	.	.	1	.	0	2
COc1cccc2c1O/C(=N\O)C(C(=O)Nc1cccc(C)c1C)C2 (configuration not stated)	6	-3	i	10	-19	-6	0	4
CCOc1ccc(C(=O)C[n+]2ccccc2C)cc1	.	7	i	0	-1	-5	7	8
Cc1c(NC(=S)NC(NC(=O)C(C)(C)C)C(Cl)(Cl)Cl)c(=O)n(-c2ccccc2)n1C (configuration not stated)	-15	-2	i	10	.	7	4	3
CN(C)C(=O)c1c(-c2ccccc2)oc2ccc(O)cc12	4	4	i	3	.	2	10	2
Cc1nc(SCc2ccccc2)c2ccsc2n1	.	2	i	2	16	.	1	-9
O=C(NCC1CCCN1S(=O)(=O)c1cccs1)c1cccc(Cl)c1 (configuration not stated)	.	.	i	.	.	-7	5	-6
CCCn1c(=O)n(N)c2ccccc21	-3	-6	i	3	4	3	-2	4
Cc1c(CNCCC2=CCCCC2)c(C(=O)O)c(C)n1Cc1ccccc1	.	4	i	-6	7	8	3	5
CC(C)CC(=O)NC(=S)Nc1ccc(F)cc1F	.	-4	i	-7	-7	-2	-2	0
O=c1oc2ccccc2c2c1cnc1ccccc12	-13	.	.	.	13	.	4	10
CCOC(=O)c1ccc(NC2c3ccccc3C(=O)N2c2ccc(C)cn2)cc1 (configuration not stated)	-21	-3	i	10	-2	1	-5	-1
CCOc1ccc(OCC)c(-c2c(=O)n(OCc3ccc(Cl)cc3)c3ccccc3[n+]2[O-])c1	7	-9	i	0	?	.	-5	-9
CCOc1ccc(NC(=S)N2CCc3cc(OC)c(OC)cc3C2COc2ccc3c(C)cc(=O)oc3c2)cc1 (configuration not stated)	.	0	i	-4	7	-2	0	2
O=C(Cc1ccccc1)NN1CCCCC1	-14	-5	i	-2	-24	-2	1	0
CCc1ccc(OCc2nnc(SCC(=O)Nc3cccc(C(=O)N4CCOCC4)c3)o2)cc1	.	7	i	18	-9	-10	1	3
CN1CCN(c2ccc(NC(=O)c3ccc4ccccc4c3)cc2)CC1	-42	-6	i	-3	-52	-1	2	1
CCOc1cccc(-c2c(C(=O)N/N=C(\C)c3cccs3)nnn2-c2nonc2N)c1	-8	-1	i	19	-2	-2	-6	-6
COc1ccc(OC)c(NC(=O)Cc2coc3ccc(C)cc23)c1	-11	-4	i	5	.	-15	4	-3
CCO/N=C(\C)c1c(O)cc(C(C)C)n(-c2ccccc2)c1=O	.	8	i	-10	6	-3	1	2
Cc1ccc(N(CC(=O)N(C)Cc2ccccc2)S(C)(=O)=O)cc1C	-2	-4	i	10	1	-6	-2	1
COc1ccc(OCCCn2cc(/C=C3/C(=N)N4C=C(C)SC4=NC3=O)c3ccccc32)cc1	-10	10	i	-1	-21	10	-2	-1
O=C(COc1ccccc1)n1nc(-c2ccc(Cl)cc2)nc1NCc1ccco1	-7	-13	i	6	-329	24	13	-8
CN(C)S(=O)(=O)n1cc(/C=C(\NC(=O)c2ccccc2Cl)C(=O)NCCCn2ccnc2)c2ccccc21	.	-16	i	-14	11	4	1	-3
COc1ccccc1OCCCOc1ccc([N+](=O)[O-])cc1Cl	7	4	i	0	.	34	1	-7
Cn1nc(C(=O)Nc2nc3ccccc3[nH]2)ccc1=O	.	-4	i	6	-9	-14	7	2
COc1ccc(C(=S)N(C)C)cc1OC	-33	-3	.	-5	.	-2	7	11
CCOC(=O)N1CCN(CC(=O)Nc2ccc(F)c(F)c2)CC1	.	-6	i	84	-20	8	-2	1	eIF4H inh retest=-8;PABP FP inh retest=4
O=C(NCCOc1ccccc1)c1cc2ccccc2o1	-20	-7	i	3	-61	-3	-3	-2
C/C(=N\Nc1cccc2cccnc12)c1ccc(C)cc1	.	3	i	-7	-33	9	1	0
Cc1cccc(NS(=O)(=O)c2ccc(C(=O)N3CCC3)cc2)c1C	-17	.	i	.	-18	-15	11	-6
COc1ccccc1OCC(=O)Nc1ccc(S(=O)(=O)N2CCCCCC2)cc1	-4	-7	i	-6	.	-3	-1	3
CC(C)(C)CC(=O)Nc1nnc(SCC(=O)N2CCCCC2)s1	-10	-4	.	10	-10	-10	0	-4
CC1CCCC(C)N1C(=O)Cn1cc(/C=C2/C(=O)Nc3ccccc32)c2ccccc21 (configuration not stated)	-7	5	i	9	.	27	-12	-16
C=CCSc1nc(C)c(CC(=O)OCC(C)C)c(=O)[nH]1	-1	-2	i	-8	.	-5	0	3
O=C(O)CCCNC(=O)/C(=C\c1ccc(Cl)cc1)NC(=O)c1ccccc1Br	.	1	i	0	-16	16	4	3
COc1cc2ccccc2cc1C(=O)Nc1ccc(O)cc1	-23	28	i	13	-81	40	4	-7
CCCc1cc(=O)oc2cc(OCC(=O)NCc3ccccn3)ccc12	-7	-14	i	-18	-4	0	-1	-1
Cc1ccc(COC(=O)c2cc(S(=O)(=O)N3CCOCC3)ccc2C)cc1	.	.	.	.	9	-9	-3	-3
Cc1cccc(C(=O)NCc2ccc(S(N)(=O)=O)cc2)c1[N+](=O)[O-]	.	-10	i	7	11	-14	2	7
COc1ccc(/C=C/C(=O)Nc2cc(C)on2)cc1	.	10	i	0	-28	18	3	2
Cn1ncc(N=Cc2ccc([N+](=O)[O-])cc2)c1C(=O)N1CCOCC1	-6	-11	i	-5	.	-1	6	5
O=C(NCCc1ccccc1)C1CCCN(S(=O)(=O)c2cccnc2)C1 (configuration not stated)	-21	-11	i	1	4	-11	-5	2
O=C(NCCc1ccc(F)cc1)c1cccc(NC(=O)c2ccccc2)c1	-5	-7	i	-3	7	1	1	-2
COc1ccc(S(=O)(=O)NCCc2csc(C)n2)cc1C	-1	-5	i	-3	.	12	-2	0
CCCN1C(=O)c2ccccc2NC1c1ccc(OC)c(CSc2ccccn2)c1 (configuration not stated)	-12	-16	i	3	.	22	-2	-6
Cc1c(C(=O)N2CCN(c3ccccc3)CC2)oc2c(Cl)cccc12	-11	.	.	.	5	.	-1	-2
Cc1ccc(NC(=O)CSc2n[nH]c(C)c2[N+](=O)[O-])cc1	.	-4	i	?	-9	9	2	2
O=C(CSc1ncn(-c2ccccc2)n1)Nc1nc(-c2ccccc2)cs1	-11	11	i	4	-33	-4	2	0
O=C(NCCN1CCOCC1)c1ccc(=O)n(Cc2ccc(Cl)cc2)c1	-9	-2	i	10	6	1	-5	1
COc1cc(C(=O)NCC2CCCO2)ccc1OCc1c(C)noc1C (configuration not stated)	-7	-9	i	-5	18	3	-20	-2
NC(=O)c1ccc(Cn2c(C(=O)c3ccc(Cl)cc3)c3ccccc3[n+]2[O-])cc1	-7	.	.	.	24	-3	3	-4
CCOC(=O)N1CCN(C(=O)CSCc2ccccc2)CC1	.	-6	i	48	-1	-15	3	1
Additional compounds
SMILES	Yeast UUG start	eIF4H inh	Rce1 inh	PABP FP inh	Env fusion inh	CSC inhib	MT1-MMP act inh	MT1-MMP act inh RFP	others
CCOc1ccccc1CN1CCN(Cc2ccc3cc(F)ccc3n2)CC1CCO (configuration not stated)	-1	-1	i	-3	28	50	-3	0
O=C(CSCCOc1ccccc1)NCc1ccncc1	.	5	i	-8	6	-14	.	.
CCOC(=O)c1cnn(CCOC(=O)c2ccccc2)c1NC(=O)c1ccccc1	-7	-3	i	8	-41	4	-2	-1
Cc1ccc(-n2ncc3c2CCCC3NC(=O)CCn2ccnc2C)cc1C (configuration not stated)	-16	3	i	6	7	12	1	-2
CCn1cc(C(=O)NCCCO)c(=O)c2cc(F)c(N3CCN(C)CC3)cc21	-13	0	i	16	5	-8	-6	-4
CC1CCN(C(=O)c2ncn(C)c2C(=O)N2CCC(C)CC2)CC1	6	.	.	.	5	4	-3	-1
Cc1cc(NC(=O)CSc2nc3cc(C)c(C)cc3cc2C)no1	-10	4	i	2	-1	-9	-1	-2
CC(=O)c1ccc(-c2cnc3c(NC=O)cc(-c4cccc(C(=O)N(C)C)c4)cn23)cc1	8	.	.	.	-6	.	3	2
CC(C)Cc1ccc(C(C)C(=O)OCC(=O)c2c[nH]c3ccccc23)cc1 (configuration not stated)	-10	-8	.	-1	.	27	3	4
Cn1c(=O)c2c([nH]c(=O)n2C)n(C)c1=O	-3	3	i	10	5	2	1	9
CCOC(=O)c1sc(-c2ccccc2)cc1NC(=O)Nc1ccc([N+](=O)[O-])cc1	.	4	i	4	-26	30	0	1

Structures above that have an aryl thioether with sulfur outside any ring:
SMILES	Yeast UUG start	eIF4H inh	Rce1 inh	PABP FP inh	Env fusion inh	CSC inhib	MT1-MMP act inh	MT1-MMP act inh RFP	others
CCn1c(CC(=O)Nc2ccc(C)cc2)nnc1SCC(=O)NCc1ccccc1	-22	6	i	3	-14	-9	0	0
Cc1nc(SCc2ccccc2)c2ccsc2n1	.	2	i	2	16	.	1	-9
CCc1ccc(OCc2nnc(SCC(=O)Nc3cccc(C(=O)N4CCOCC4)c3)o2)cc1	.	7	i	18	-9	-10	1	3
CC(C)(C)CC(=O)Nc1nnc(SCC(=O)N2CCCCC2)s1	-10	-4	.	10	-10	-10	0	-4
C=CCSc1nc(C)c(CC(=O)OCC(C)C)c(=O)[nH]1	-1	-2	i	-8	.	-5	0	3
CCCN1C(=O)c2ccccc2NC1c1ccc(OC)c(CSc2ccccn2)c1 (configuration not stated)	-12	-16	i	3	.	22	-2	-6
Cc1ccc(NC(=O)CSc2n[nH]c(C)c2[N+](=O)[O-])cc1	.	-4	i	?	-9	9	2	2
O=C(CSc1ncn(-c2ccccc2)n1)Nc1nc(-c2ccccc2)cs1	-11	11	i	4	-33	-4	2	0
Cc1cc(NC(=O)CSc2nc3cc(C)c(C)cc3cc2C)no1	-10	4	i	2	-1	-9	-1	-2
